RE007 growth inh: less growth of the S. pombe RE007 Vpr strain; 360,000 tested, 0.21% active; Potency, µM (series often up to 92.2 µM), for the others: top-dose activity change, negative = less growth; S. pombe RE007 Vpr strain, BacTiter-Glo ATP luminescence, 24 h; control for the full effect not named in the record; active = well fitted falling curve with a large enough effect; inconclusive = small, poorly fitted or top-dose-only effect; inactive = no such curve, though single readings can be large or run the other way;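 note: nearly all actives have a fitted effect of over 50% in size; the assay follows cell death caused by Vpr and the record does not say whether a fall means rescue or toxicity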
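Fission yeast RE007 carrying one integrated HIV-1 vpr copy, seeded at OD 0.01 in PMG+AL medium with 23 nL pinned compound. Grown 24 h at 30 degrees; viability read by BacTiter-Glo luminescence after 5 min.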
StopGo reporter: FMDV 2A StopGo reporter, luciferase signal | human cells with a luciferase reporter of 2A StopGo recoding; control for the full effect not named in the record | Potency, µM (series often up to 57.9 µM), for inactives: at the highest dose signal change, negative = less light | 410,000 tested, 1.2% active; active = well fitted falling curve with a large enough effect; inconclusive = small, poorly fitted or top-dose-only effect; inactive = no such curve, though single readings can be large or run the other way; tested in HEK293T cells; note: nearly all actives have a fitted effect of over 45% in size; luciferase light after 4 h
* hit, by the source's call; [ ] = another dose, or the depositor's remark. % is set by controls: 0 for no effect and ±100 for the full control effect; potency is the fitted concentration of half-maximal effect. An excerpt; count on the stated rates, not on these rows.

`C[C@H]1CCC[C@]2(O[C@@H](CCO)C[C@@H](O)[C@@H]2O)O1` gave RE007 growth inh -1.3% and StopGo reporter -0.7%.
`Cc1ccc(NC(=O)c2ccc(S(=O)(=O)N(C)c3ccccc3)cc2)cc1S(=O)(=O)N1CCOCC1` gave RE007 growth inh -6.3% and StopGo reporter 12.6µM*.
`CCOC1=C2CN(S(=O)(=O)c3ccc(C)cc3)[C@H](c3ccc(CC)cc3)C[C@@H]2N(S(=O)(=O)c2ccc(C)cc2)[C@H](c2ccccc2)C1` gave RE007 growth inh 1.6% and StopGo reporter -24.2%.
For O=C(O)C1CCC2CCCC21 (stereo not drawn) the results were RE007 growth inh 15.0% and StopGo reporter inconclusive.
Screening CC(O)(C(=O)c1ccccc1)c1ccccc1 (stereo not drawn) returned RE007 growth inh 13.2% and StopGo reporter -5.9%.
Screening O=S1(=O)CC(N2CCN(CCO)CC2)CN1C1CCCC1 (stereo not drawn) returned RE007 growth inh 2.5% and StopGo reporter -22.8%.
`CCCCC(=O)N(C)c1c(CC)nc2c(OCCOc3ccc(F)cc3)cccn12` gave RE007 growth inh inconclusive and StopGo reporter -25.1%.
C[C@@H]1CNC(=O)c2c(C(=O)N[C@H](C)c3ccccc3)ncn21 was read as RE007 growth inh 9.6% and StopGo reporter 0.0%.
Screening CCOc1cc(/C=N/NC(=O)c2ccncc2)cc(Br)c1O returned RE007 growth inh -3.3% and StopGo reporter -3.7%.
`O=C(NCc1ccccc1)C1C(c2ccc3c(c2)OCO3)=Nc2ccccc2N1C(=O)c1ccccc1` (stereo not drawn) gave RE007 growth inh 0.2% and StopGo reporter 7.2%.
For CCOc1ccccc1C(=O)NCCN1CCC(n2c(=O)[nH]c3ccccc32)CC1 the results were RE007 growth inh 1.7% and StopGo reporter -28.3%.
COc1cccc(-c2oc3c(c2C#CCCO)C(O)CCC3)c1 (stereo not drawn) was read as RE007 growth inh 4.0% and StopGo reporter -19.3%.
CC(=O)OC[C@@H]1CN(Cc2cccc(C(F)(F)F)c2)C[C@H](n2cnc3c(NCc4ccco4)ncnc32)O1 was read as RE007 growth inh 9.6% and StopGo reporter -17.9%.
`COC(=O)C[C@@H]1CC[C@H](NS(=O)(=O)c2ccccc2F)[C@@H](CO)O1` gave RE007 growth inh 10.0% and StopGo reporter -4.5%.
`CCN1C[C@@H]2[C@@H]3C(=O)N(C)C(=O)[C@@H]3[C@](CC)(C(=O)OC)N2C1=NCc1ccccc1` gave RE007 growth inh 5.6% and StopGo reporter -2.9%.
COCOCCn1cc(CN2CCS(=O)(=O)N(Cc3ccc(-c4ccncc4)cc3)C(CC(C)C)C2=O)nn1 (stereo not drawn) was read as RE007 growth inh 4.8% and StopGo reporter -20.6%.
`O=C(NCCN1CCC(n2c(=O)[nH]c3ccccc32)CC1)c1cc(F)cc(F)c1` gave RE007 growth inh -14.5% and StopGo reporter -17.1%.
CSc1ncnc2c1ncn2CCCN1CCN(Cc2c(C)cc(C)cc2C)CC1 was read as RE007 growth inh -28.8% and StopGo reporter -26.4%.
For COc1ccc(-c2csc(C(O)c3ccc(F)c(F)c3)n2)cc1 (stereo not drawn) the results were RE007 growth inh inconclusive and StopGo reporter 0.5%.
`COc1cccc(CN2CCN(S(=O)(=O)c3ccccc3)CC2)c1OC` gave RE007 growth inh -3.5% and StopGo reporter -16.2%.
CCC(c1nnnn1-c1ccc2c(c1)OCCO2)N1CCN(CCN2CCOCC2)CC1 (stereo not drawn) was read as RE007 growth inh -12.6% and StopGo reporter -18.3%.
Screening CCCCOc1ccc(/C=N/NC(=O)c2nnn(-c3nonc3N)c2CN2CCCCCC2)cc1 returned RE007 growth inh -1.8% and StopGo reporter -16.8%.
COc1ccc(SCC2CN(C)CCC2c2ccc(F)cc2)cc1 (stereo not drawn) was read as RE007 growth inh 5.4% and StopGo reporter 14.3%.
For C[C@@H]1CN([C@@H](C)CO)C(=O)CCCn2nncc2CO[C@H]1CN(C)C(=O)Nc1ccccc1C(F)(F)F the results were RE007 growth inh -11.1% and StopGo reporter -11.0%.
For CC(C)(C)c1ccc(C(=O)N2CCC(=O)N([C@H](COCc3ccccc3)Cc3ccccc3)CC2)cc1 the results were RE007 growth inh 1.2% and StopGo reporter -20.0%.
`COc1ccc(-n2c(-c3ccccc3F)nc3ccccc3c2=O)cc1` gave RE007 growth inh -13.1% and StopGo reporter -23.2%.
Cc1ccccc1C(=O)N1CCC1(C)C(=O)NC(C)C (stereo not drawn) was read as RE007 growth inh 7.6% and StopGo reporter -8.4%.
For COc1cccc(CNC(=O)c2ccc(CS(=O)Cc3ccccc3Cl)o2)c1 (stereo not drawn) the results were RE007 growth inh 8.4% and StopGo reporter -23.1%.
`CC(O)(c1cccnc1)c1nc(-c2cccc(C#N)c2)cs1` (stereo not drawn) gave RE007 growth inh 10.5%[18.4 µM] and StopGo reporter -10.9%.
Screening C#CC(C)OCC1CNC(=S)O1 (stereo not drawn) returned RE007 growth inh -5.5% and StopGo reporter -22.6%.
For Cc1ccc2nc(-c3ccc(C#N)cc3)c(Cc3ccccc3)n2c1 the results were RE007 growth inh -10.7% and StopGo reporter 9.7%.
COC(=O)[C@@]12C[C@@H](CC(=O)NCc3cccc4ccccc34)C(=O)N(Cc3cccc4ccccc34)C1=CCC(C)(C)C2 was read as RE007 growth inh -1.1% and StopGo reporter -10.5%.
For O=C(CCn1c(=O)sc2ccccc21)NCCN1CCOCC1 the results were RE007 growth inh -6.5% and StopGo reporter -15.2%.
`O=C(NC(=S)Nc1ccc(O)cc1)c1cncc(Br)c1` gave RE007 growth inh 3.2% and StopGo reporter 36.2%[activator].
`Cc1cccc(C)c1C(O)c1ncc(-c2ccccc2Cl)[nH]1` (stereo not drawn) gave RE007 growth inh -17.7% and StopGo reporter 2.7%.
CCOC(=O)[C@]12CCCC=C1N(Cc1ccco1)C(=O)[C@H](CC(=O)NCCCCc1ccccc1)C2 was read as RE007 growth inh -1.2% and StopGo reporter -21.9%.
For CC1=C(C(=O)N2CCOCC2)CC(CC(=O)NCCCCc2ccccc2)C(=O)N1Cc1ccc(F)cc1 (stereo not drawn) the results were RE007 growth inh 13.1% and StopGo reporter -16.6%.
Screening CC1CCCCc2nc3c(c(=O)n21)CCCC3 (stereo not drawn) returned RE007 growth inh -1.6%[18.4 µM] and StopGo reporter -13.5%.
For O=C(NCc1ccccc1)C1c2ccccc2OCC(=O)N1CCc1c[nH]c2ccccc12 (stereo not drawn) the results were RE007 growth inh 2.9% and StopGo reporter -15.6%.
`COc1cc([N+](=O)[O-])c2ncccc2c1[N+](=O)[O-]` gave RE007 growth inh 1.2% and StopGo reporter -17.0%.
`CCOC(=O)C(=O)N(C)c1c(CC)nc2c(OCc3ccc(OC)cc3)cccn12` gave RE007 growth inh -11.1%[18.4 µM] and StopGo reporter -7.2%.
For Cc1cccnc1C(NC(=O)C1CCN(Cc2ccc3ccccc3n2)CC1)c1ccc(Cl)cc1 (stereo not drawn) the results were RE007 growth inh 1.0%[18.4 µM] and StopGo reporter -10.4%.
Screening CCNC(=O)C1(C)CCCN1C(=O)c1ccc(C#N)cc1 (stereo not drawn) returned RE007 growth inh -22.8% and StopGo reporter -21.3%.
`COC(=O)c1cccc(CC2(C)C(=O)Nc3ccc(OC(F)(F)F)cc32)c1` (stereo not drawn) gave RE007 growth inh 26.0%[18.4 µM] and StopGo reporter -25.9%.
CCC1(CC)C(=O)C2=C3C1[C@H](C(=O)OC)CC(C(=O)OC)C[C@H]3[C@H]1C(=O)N(c3ccccc3)C(=O)[C@H]1[C@H]2C (stereo partly drawn) was read as RE007 growth inh -13.0% and StopGo reporter -6.3%.
CCCN(CC(=O)Nc1ccccc1OC)C(=O)CN1C(=O)NC(C)(C)C1=O was read as RE007 growth inh -3.0% and StopGo reporter -1.5%.
CC(=O)c1ccc(Nc2nc(-c3sc(C)nc3C)cs2)cc1 was read as RE007 growth inh -1.1% and StopGo reporter 25.1µM*.
`CCCN(CC(=O)Nc1ccccc1C)C(=O)C1CCN(S(=O)(=O)c2ccc(C)c(C)c2)CC1` gave RE007 growth inh 16.7% and StopGo reporter -16.0%.
For C[C@H]1CN([C@@H](C)CO)C(=O)CCCn2nncc2CO[C@@H]1CN(C)C(=O)Oc1ccccc1 the results were RE007 growth inh 2.0% and StopGo reporter -14.5%.
Screening O=C(C(=O)N1CCN(Cc2ccccc2)CC1)c1c[nH]c2ccccc12 returned RE007 growth inh 5.5% and StopGo reporter -11.3%.
`C[C@@H]1CN([C@H](C)CO)S(=O)(=O)c2ccc(Br)cc2O[C@@H]1CN(C)C(=O)NC1CCCC1` gave RE007 growth inh 6.7% and StopGo reporter 36.4%[activator].
Screening O=C(NCc1ccco1)c1cccc(-c2cncc3nccn23)c1 returned RE007 growth inh 7.6%[18.4 µM] and StopGo reporter -9.8%.
Screening CSCC[C@H]1COC[C@@H](Cc2ccccc2)N1c1ccccc1 returned RE007 growth inh -6.1% and StopGo reporter inconclusive.
Screening COc1cc2[nH]c(=O)c(C(=O)NCc3ccc(C)cc3)c(O)c2cc1OC returned RE007 growth inh 3.7% and StopGo reporter -13.7%.
For COc1ccc([C@@H]2CC(=O)[C@@H]3CN(S(=O)(=O)c4ccc(Cl)cc4)[C@H](c4ccc(C)cc4)C[C@@H]3N2S(=O)(=O)c2ccccc2)cc1 the results were RE007 growth inh 16.9% and StopGo reporter -20.0%.
For CN(Cc1ccccc1)C(c1ccnc2ccccc12)c1nnnn1-c1ccc2c(c1)OCCO2 (stereo not drawn) the results were RE007 growth inh -11.7% and StopGo reporter -16.6%.
`Cn1cnc(S(=O)(=O)N2CCCC(c3cc(C(=O)Nc4ccc(F)c(Cl)c4)no3)C2)c1` (stereo not drawn) gave RE007 growth inh 9.7% and StopGo reporter 21.9%.
`CCOC(=O)[C@]12CCCC=C1N(Cc1cccc3ccccc13)C(=O)[C@H](CC(=O)N1CCCCC1)C2` gave RE007 growth inh 2.5% and StopGo reporter -7.4%.
O=C(CCCN1C(=O)C(c2ccccc2)Oc2cccnc21)Nc1ccccc1Br (stereo not drawn) was read as RE007 growth inh 7.2% and StopGo reporter -16.0%.
Screening CCC[C@@H]1CCCO[C@@](C(=O)NCc2ccc(S(C)(=O)=O)cc2)(C(F)(F)F)C1 returned RE007 growth inh -4.4% and StopGo reporter -17.1%.

Continued; it opens with the five that closed the last part.
For CN(Cc1ccccc1)C(c1ccnc2ccccc12)c1nnnn1-c1ccc2c(c1)OCCO2 (stereo not drawn) the results were RE007 growth inh -11.7% and StopGo reporter -16.6%.
`Cn1cnc(S(=O)(=O)N2CCCC(c3cc(C(=O)Nc4ccc(F)c(Cl)c4)no3)C2)c1` (stereo not drawn) gave RE007 growth inh 9.7% and StopGo reporter 21.9%.
`CCOC(=O)[C@]12CCCC=C1N(Cc1cccc3ccccc13)C(=O)[C@H](CC(=O)N1CCCCC1)C2` gave RE007 growth inh 2.5% and StopGo reporter -7.4%.
O=C(CCCN1C(=O)C(c2ccccc2)Oc2cccnc21)Nc1ccccc1Br (stereo not drawn) was read as RE007 growth inh 7.2% and StopGo reporter -16.0%.
Screening CCC[C@@H]1CCCO[C@@](C(=O)NCc2ccc(S(C)(=O)=O)cc2)(C(F)(F)F)C1 returned RE007 growth inh -4.4% and StopGo reporter -17.1%.
Screening C[C@H]1CN([C@@H](C)CO)S(=O)(=O)c2ccc(Br)cc2O[C@@H]1CN(C)C(=O)Cc1ccccc1 returned RE007 growth inh -15.9% and StopGo reporter 34.1%[activator].
Screening O=C(NCC1=C(c2cccc3ccccc23)C[C@@H]2CC[C@H]1N2Cc1ccco1)c1ccncc1 returned RE007 growth inh -0.5% and StopGo reporter -20.5%.
Screening CCCCn1nnnc1C1(C)CCC(=O)N1Cc1cc(OC)ccc1OC (stereo not drawn) returned RE007 growth inh 1.1% and StopGo reporter -10.8%.
`CC(C)CNC(=O)C1(C)CCCN1C(=O)c1cc2ccccc2s1` (stereo not drawn) gave RE007 growth inh 25.0% and StopGo reporter -3.6%.
Screening COc1ccc(N2C(=O)c3ccccc3NC(=O)C2C(=O)NCc2ccco2)cc1 (stereo not drawn) returned RE007 growth inh -1.8% and StopGo reporter -0.5%.
Screening CCCCCCN1C[C@H](n2cc(COC(=O)c3ccccc3)nn2)[C@@H](O)C[C@@H]1c1ccccc1 returned RE007 growth inh -8.3% and StopGo reporter 0.0%.
Cc1cc(C)cc(C(O)c2ncc(-c3cccc(F)c3)[nH]2)c1 (stereo not drawn) was read as RE007 growth inh -25.7% and StopGo reporter 35.5%[activator].
Screening O=C(NCc1ccc(F)cc1)c1cccc2c1C(=O)c1ccc(N3CCC(N4CCCCC4)CC3)cc1S2(=O)=O returned RE007 growth inh -2.9% and StopGo reporter -20.2%.
O=S1(=O)CCOC[C@H](Cc2ccccc2)N1Cc1cccc(Cl)c1 was read as RE007 growth inh -10.8% and StopGo reporter -28.9%.
`C[C@H](O)[C@@H]1CN2CCc3c([nH]c4ccccc34)[C@@H]2C[C@@H]1N(C)C(=O)OCc1ccccc1` gave RE007 growth inh -5.3% and StopGo reporter -23.4%.
CC(=O)O[C@H]1CC[C@]2(C)C3CC[C@@]4(C)C(C[C@@H](O)[C@@H]4O)C3[C@@H](OC(C)=O)C[C@H]2C1 (stereo partly drawn) was read as RE007 growth inh 0.4% and StopGo reporter inconclusive.
For COc1ccc(NC(=O)C2(C)CCN2C(=O)c2ccc(C(C)(C)C)cc2)cc1OC (stereo not drawn) the results were RE007 growth inh 8.5%[18.4 µM] and StopGo reporter -23.0%.
CC(C)(C(=O)N1CCC1(C)C(=O)NC1Cc2ccccc2C1)c1ccccc1 (stereo not drawn) was read as RE007 growth inh 3.7%[18.4 µM] and StopGo reporter 3.8%.
